VDR inhibitor = Inhibitors of the vitamin D receptor (VDR): qHTS. Vitamin D3 receptor (Homo sapiens), P11473. AID 504847, 2011. VDR-SRC2-3 peptide fluorescence polarization, 2 h. Potency, µM, inactives show max response, negative = inhibition, actives largely listed as inhibitors. 0.93% of 400,000 active; active = well fitted inhibition curve with a large enough effect; inconclusive = small, poorly fitted or top-dose-only effect, or another doubt; inactive = no such curve, though single readings can be large or run the other way; note: series mostly up to about 120 µM
Target sequence (P11473 whole entry, looked up): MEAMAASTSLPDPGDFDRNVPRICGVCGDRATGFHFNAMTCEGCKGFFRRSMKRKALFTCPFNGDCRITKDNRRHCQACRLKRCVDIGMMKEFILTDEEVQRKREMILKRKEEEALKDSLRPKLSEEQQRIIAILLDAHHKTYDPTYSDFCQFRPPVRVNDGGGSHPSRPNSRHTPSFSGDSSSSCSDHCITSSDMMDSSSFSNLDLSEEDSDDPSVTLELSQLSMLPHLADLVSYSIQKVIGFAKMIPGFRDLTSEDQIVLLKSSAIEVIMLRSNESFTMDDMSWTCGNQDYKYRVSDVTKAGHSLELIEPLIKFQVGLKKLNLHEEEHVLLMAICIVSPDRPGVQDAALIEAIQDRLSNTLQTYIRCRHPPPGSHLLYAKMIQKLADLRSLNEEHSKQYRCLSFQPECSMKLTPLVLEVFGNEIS
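Signal is fluorescence polarization, reporting how far test compounds block the interaction of VDR with the SRC2-3 coregulator peptide after a 2 h room-temperature incubation.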
Numbers without * were called inactive; ? = inconclusive; & = joins results of further samples. % is set by controls: 0 for no effect and ±100 for the full control effect; potency is the fitted concentration of half-maximal effect. An excerpt (hit frequency here may not be typical).

Start of the data: the first five compounds, ahead of the listing:
SMILES	VDR inhibitor
CCOC(=S)SCC(=O)N1CCc2cc(OC)c(OC)cc2C1C1C(=O)CC(C)(C)CC1=O (stereo not drawn)	-2.9%
CCN1C=C(C(=O)OC)C(c2cccc(OC)c2OC)C(C(=O)OC)=C1	3.6%
CN(C)CCN1C(=O)C(O)=C(C(=O)c2cc3ccccc3o2)C1c1ccc(N(C)C)cc1 (stereo not drawn)	3.4%
CC(=O)C1=C(O)C(=O)N(C2CCCCC2)C1c1ccccc1 (stereo not drawn)	?
O=C1CN(Cc2cc(=O)oc3cc4c(cc23)CCC4)CCN1	3.8%

The whole of this part, previewed entries included:
SMILES	VDR inhibitor
CCOC(=S)SCC(=O)N1CCc2cc(OC)c(OC)cc2C1C1C(=O)CC(C)(C)CC1=O (stereo not drawn)	-2.9%
CCN1C=C(C(=O)OC)C(c2cccc(OC)c2OC)C(C(=O)OC)=C1	3.6%
CN(C)CCN1C(=O)C(O)=C(C(=O)c2cc3ccccc3o2)C1c1ccc(N(C)C)cc1 (stereo not drawn)	3.4%
CC(=O)C1=C(O)C(=O)N(C2CCCCC2)C1c1ccccc1 (stereo not drawn)	?
O=C1CN(Cc2cc(=O)oc3cc4c(cc23)CCC4)CCN1	3.8%
Cc1ccccc1NC(=S)N(CCN(C)C)C(C)c1ccco1 (stereo not drawn)	-1.5%
CCOC(=O)c1c(-c2ccccc2)csc1NC(=O)COc1ccc2c(C)cc(=O)oc2c1	-17.4%
N/C(=N/OS(=O)(=O)c1ccc([N+](=O)[O-])cc1)c1ccncc1	-1.1%
CCN(CC)c1ccc(C(=O)OCc2cc(=O)oc3cc(O)ccc23)cc1	3.0%
COc1cc(C=C2C(=O)c3ccccc3C2=O)ccc1O	7.1%
CCc1nnc(NC(=O)CSc2nnc(Cc3cccn3C)n2CCOC)s1	-12.1%
COC(=O)C1=C(Nc2cc(Cl)cc(Cl)c2)CSC1	-13.6%
O=C(CCN1C(=O)/C(=C/C=C/c2ccccc2)SC1=S)Nc1nc2ccccc2s1	12.2%
COc1ccc(OC)c(NC(=O)CSc2nnc(-c3cccnc3)s2)c1	11.4%
O=C(CSc1ccccc1C(=O)O)NC12CC3CC(CC(C3)C1)C2	-24.6%
Cc1cc(NS(=O)(=O)c2ccc(NC(=O)NC(C)(C(F)(F)F)C(F)(F)F)cc2)no1	-4.8%
CCCOc1ccc(-c2nn(-c3ccccc3)cc2C2NC(=O)NC(C)=C2C(=O)OC)cc1C (stereo not drawn)	6.0%
COc1ccccc1NC(=O)CC(=O)CSc1nnc(-c2ccc(C)cc2)n1C	19.1%
CCN(CC)S(=O)(=O)c1ccc(O)c(C(=O)OCC(=O)N2CCCC2)c1	11.8%
CC(C)Cn1c(CN(C)Cc2ccccc2)nc2c1c(=O)n(C)c(=O)n2C	-4.2%
COc1ccccc1CNc1ncncc1-c1cccc(NS(C)(=O)=O)c1	-17.8%
CC(OC(=O)c1cccc(S(=O)(=O)N2CCCCC2)c1)C(=O)NC1CCCCC1C (stereo not drawn)	-1.0%
CC1=C(C(=O)Nc2ccccc2)C(c2ccccc2)N2C(=O)CSC2=N1 (stereo not drawn)	-10.2%
Cc1ccc(NS(=O)(=O)c2cccc3cccnc23)cc1Cl	-3.4%
O=C(C=C(C(=O)c1ccccc1)c1ccccc1)c1ccccc1	-5.3%
Cc1ccc(C)c(NC(=O)C(=O)NCCCN2CCOCC2)c1	3.7%&-10.8%
CCOC(=O)c1sc(NC(=O)c2ccccc2F)c(C(N)=O)c1C	-4.3%
CCOC(=O)N1CCC2(CC1)C(C(=O)C13CC4CC(CC(C4)C1)C3)C2(C#N)C#N (stereo not drawn)	8.1%
Oc1cccc(CCc2ccccn2)c1	-3.2%
O=C(Cc1ccccc1)Nc1ccc(NC(=O)c2ccccc2)c(Cl)c1	-8.8%
NC(=O)CC[C@H](NC(=O)[C@H](Cc1ccccc1)n1c(=O)[nH]c2ccccc2c1=O)C(=O)N1CCC[C@H]1C(=O)O	-17.0%
CCN(CC)S(=O)(=O)c1cccc(C(=O)N/N=C2\CCCC(=O)C2)c1	-2.2%
O=C(O)Cn1ncc2ccccc2c1=O	14.8%
CCC(CC)NC(=O)Nc1ccccc1C(F)(F)F	-22.3%
COc1ccc(C(=O)C2CCN(CC(=O)Nc3ccc(OC)cc3OC)CC2)cc1	-7.9%
CCOc1ccc(CC2c3cc(OCC)c(OCC)cc3CCN2C(=O)CN2CCN(C)CC2)cc1OCC (stereo not drawn)	-2.7%
Cc1ccc(Cn2ccc(NC(=O)c3cc4nc(-c5ccco5)cc(C(F)(F)F)n4n3)n2)cc1	3.5%
CCCC(=O)Nc1ccc(Cl)c(NC(=O)c2cccc(OC)c2)c1	-1.1%
O=C(N/N=C/c1ccc2c(c1)OCO2)c1cc(-c2ccc(F)cc2)nc2ccccc12	-10.6%
C=CCC(CC=C)(CNC(=O)C(=O)Nc1ccc(C(=O)OCC)cc1)c1ccccc1	-9.7%
CCCN=C1N(C)C[C@@H]2[C@@H]3C(=O)N(Cc4ccccc4)C(=O)[C@@H]3[C@](C)(C(=O)OC)N12	17.1%
COc1ccc(C(C)NC(=O)C2CCCC2)cc1OC (stereo not drawn)	5.2%
O=C(O)CCc1ccc(-c2ccc(F)cc2)n1CC1CCCO1 (stereo not drawn)	3.7%
Cc1cccc(Nc2ccncc2S(N)(=O)=O)c1	-4.0%
COc1cc(OC)c(OC)cc1CN1CCCC(C(=O)N2CCCCC2)C1 (stereo not drawn)	11.7%
O=S(=O)(c1ccc(OC(F)(F)F)cc1)N1CCCC(N2CCOCC2)C1 (stereo not drawn)	-11.1%
CN(C)CCCNc1ncnc2sc(-c3ccccc3)cc12	-20.9%
COC(=O)C1CC2=C(CCCC2=O)NC1=O (stereo not drawn)	-15.8%
Cc1cc(C)nc(SCC(=O)NNC(=O)c2cccs2)n1	-10.8%
CCCCCOc1ccc(/C(C)=N/NC2=NCCN2)cc1	10.1%
COC(=O)CCC(=O)OC1(C)C(=O)C=C2C=C(CCCNC(=O)OC(C)(C)C)OC=C2C1=O (stereo not drawn)	4.4%
CCOC(=O)C(N)CSC1CC(=O)N(CCc2ccccc2)C1=O (stereo not drawn)	0.5%
N=c1nc(SCCC(=O)O)ss1	-10.5%
Cc1cc(S(=O)(=O)N2CCOCC2)ccc1NC(=O)c1ccc(F)cc1	-12.5%
CCOC(=O)C1CCN(C(=O)c2cc3ccc(OC)cc3[nH]2)CC1	-6.0%
CN1CCc2ccccc2CC1=O	-4.6%
Cc1nc2ccccc2n1C(=O)c1ccc(Cl)cc1[N+](=O)[O-]	-9.1%
CCc1cccc(C)c1NC(=O)C(CC)n1nc(C)c2c(C)n(-c3ccccc3)nc2c1=O (stereo not drawn)	-0.7%
Cc1cccc2c1-c1sc(C(=O)N3CCN(c4ccc(F)cc4)CC3)cc1CO2	10.2%
Cc1cccc(N2CC(C)Cn3c2nc2c3c(=O)n(CC(=O)OCc3ccccc3)c(=O)n2C)c1 (stereo not drawn)	0.0%

The list goes on:
SMILES	VDR inhibitor
Cc1cccc(N(Cc2ccccc2)C(=O)CCl)c1	-18.1%
O=C(N/N=C/c1cccc([N+](=O)[O-])c1)c1ccc2nc[nH]c2c1	1.5%
C/C(=N\NC(=O)c1c(Br)c(C)nn1C)c1cccc(NC(=O)C2CCC2)c1	10.3%
O=S(=O)(Nc1ccc(N2CCCCC2)cc1)c1cccc2cccnc12	3.0%
Cc1ccc2[nH]c(=O)c(CN(CCO)Cc3nnnn3Cc3ccccc3)cc2c1	-17.8%
Cc1occc1C(=O)N/N=C/c1sc(N2CCOCC2)nc1-c1ccccc1	-6.3%
CCCNC(=O)c1csc2c1CCCCC2	-0.4%
CSCCC(NC(=O)C1CCC(C)CC1)C(=O)NCCN1CCOCC1 (stereo not drawn)	2.0%
CCCOc1ccc(N2C(=O)CC(SC(=NC)Nc3ccc(F)cc3)C2=O)cc1 (stereo not drawn)	5.7%
Cc1ccccc1OCC(=O)NNC(=O)Nc1ccccc1	-3.1%
CCN1C[C@@H]2[C@@H]3C(=O)N(Cc4ccccc4)C(=O)[C@@H]3[C@](CC)(C(=O)OC)N2C1=NC1CCCCC1	-13.3%
COc1ccc(C(CC(=O)Nc2ccc(C(C)=O)cc2)N2Cc3ccccc3C2=O)cc1 (stereo not drawn)	-0.6%
Cc1ccc2cc(CN(CC(C)C)S(=O)(=O)c3cccc4nonc34)c(=O)[nH]c2c1	13.2%
COc1ccc(-c2ocnc2C(=O)Nc2ccc3c(c2)CCC3)cc1	6.2%
Cc1ccc(NC(=O)COC(=O)c2ccccc2Cl)cc1S(=O)(=O)N(C)C	0.2%
CC1(C)CC(=O)C=C(Nc2ccc(S(N)(=O)=O)cc2)C1	5.6%
O=C(CCNC(=O)c1ccccc1)Nc1cccnc1	-11.2%
CCOC(=O)C1CCCN(C(=O)c2cc(-c3ccc(F)cc3)nc3ccccc23)C1 (stereo not drawn)	-3.6%
CNc1csc(C)c(C)c1=O	5.3%
CCC1CN(C(=O)N2CCC(C(=O)Nc3cc(C)ccc3C)CC2)c2ccccc2O1 (stereo not drawn)	1.4%
Cc1ccc2c(c1)sc(=NC(=O)C1CC1)n2C	-11.9%
CCOC(=O)c1cncc(C#CCO)c1	5.1%
CC(=O)N1CCC(N(CCN2CCOCC2)C(=S)Nc2cccc(C)c2C)CC1	-12.5%
CCCCN(C)CC(O)Cn1cc(/C=C/C(=O)c2ccc(Br)cc2)c2ccccc21 (stereo not drawn)	16.4%

Pulled by compound from the entries so far, five records:
SMILES	VDR inhibitor
CCOC(=O)C1CCCN(C(=O)c2cc(-c3ccc(F)cc3)nc3ccccc23)C1 (stereo not drawn)	-3.6%
Cc1ccc(NC(=O)COC(=O)c2ccccc2Cl)cc1S(=O)(=O)N(C)C	0.2%
CC1(C)CC(=O)C=C(Nc2ccc(S(N)(=O)=O)cc2)C1	5.6%
O=C(CCNC(=O)c1ccccc1)Nc1cccnc1	-11.2%
CC(=O)N1CCC(N(CCN2CCOCC2)C(=S)Nc2cccc(C)c2C)CC1	-12.5%

Additional entries.
SMILES	VDR inhibitor
CCCCCC(=O)N/N=C/c1ccco1	3.1%
Cc1nc2cc(-c3ccc(Cl)cc3)nn2c(C)c1CCC(=O)NCc1ccco1	-2.6%
Cc1cc(-c2cccs2)c(C#N)c(=S)[nH]1	-13.3%
CCN(c1cccc(C)c1)S(=O)(=O)c1nnc(NC(=O)C2CCCCC2)s1	0.6%
O=[N+]([O-])c1cc(Cl)ccc1-c1nc(-c2ccncc2)no1	-11.8%
Cn1c(=O)c2c([nH]c(OCc3ccc(Cl)cc3Cl)[n+]2Cc2ccc(F)cc2)n(C)c1=O	-11.8%
Cc1noc(NS(=O)(=O)c2ccc(NC(=O)c3ccc(N4C(=O)c5ccccc5C4=O)cc3)cc2)c1C	13.4%
O=[N+]([O-])c1ccc(NNC(=S)Nc2ccc(F)cc2)cc1	?
O=C(O)C1CSC2(c3ccc4c(c3)OCCO4)CCC(=O)N12 (stereo not drawn)	-17.4%
COc1ccc(C2(C(=O)Nc3ccc(C(=O)N4CCOCC4)cc3)CCOCC2)cc1	-3.7%
Cc1cc(C)nc(NC(=O)Nc2ccc(F)cc2F)n1	-21.0%
CCOC(=O)c1ccc(NC(=S)NCCc2ccc(F)cc2)cc1	-3.7%
COc1ccc(CNS(=O)(=O)CCNCCc2ccccc2)cc1	-4.9%
OCC[C@H]1C[C@H](O)[C@@H](O)[C@@]2(CCCc3ccccc3O2)O1	-3.5%
COCCNC(=S)N1CCC(C(=O)c2ccc(F)cc2)CC1	-5.3%
COc1ccc(/C=C(\C#N)C(=O)OC2CCOC2=O)cc1 (stereo not drawn)	-10.4%
O=C(CCNC(=O)c1ccccc1Cl)NN1C(=O)NC2(CCCCC2)C1=O	-17.6%
O=C(NC(Cc1ccccc1)C(=O)O)/C(=C/c1ccc([N+](=O)[O-])cc1)NC(=O)c1ccccc1Br (stereo not drawn)	-10.8%
CCOc1cc(C(=O)N2CCc3c([nH]c4ccccc34)C2c2ccccc2)cc(OCC)c1OCC (stereo not drawn)	-2.7%
COc1cc(OC)c(NC(=O)c2ccoc2C)cc1Cl	-15.3%
COc1cc2nc(CSc3nc(-c4ccc(F)cc4)cs3)[nH]c(=O)c2cc1OC	-25.2%
COc1ccc(-c2n[nH]c3c2C(c2ccc(Cl)cc2Cl)NC3=O)cc1 (stereo not drawn)	-15.2%
COc1ccccc1CNC(=O)CSc1ccc(-c2cccc([N+](=O)[O-])c2)nn1	-5.8%
Cc1cc(C)c(S(=O)(=O)OC[C@H]2C=CC[C@@H](CCC[C@H]3O[C@H](C(=O)OC(C)C)CC[C@@H]3C)O2)c(C)c1	?
Cc1nc2cnc(N3CCOCC3)nc2n(Cc2cccs2)c1=O	-11.7%
OCCC1CN(Cc2cccn2-c2nccs2)CCN1Cc1ccccc1 (stereo not drawn)	-8.7%
CCOc1ccc(N(Cc2ccccc2)C(=O)c2nc(S(C)(=O)=O)ncc2Cl)cc1	12.6µM*
O=C(NCc1ccccc1F)C1CCN(C(=O)NCc2ccccc2)CC1	1.9%
Cc1ccc([C@@H]2CC=C(C(=O)O)[C@H](c3ccc(Br)cc3)N2S(=O)(=O)c2ccc(C)cc2)cc1	-10.0%
O=C(c1ccc(OC(F)(F)F)cc1)c1ncc[nH]1	-6.2%
COc1ccc(NS(=O)(=O)c2ccc(SC)cc2)c(OC)c1	-13.4%
COc1ccc(C(=O)NNC(=O)c2cc(C)[nH]n2)cc1	-3.3%
COc1cccc2[nH]c3c(N4CCc5ccccc5C4)ncnc3c12	-5.7%
S=C(NCCc1ccccc1)Nc1ccc(Cl)cc1Cl	-3.2%
Cc1cccc(C)c1OCc1nc2c3c(-c4ccccc4)c(-c4ccccc4)oc3ncn2n1	-18.0%
Cc1cc(C)cc(NC(=O)C2CCCN(S(=O)(=O)c3ccc4[nH]c(=O)ccc4c3)C2)c1 (stereo not drawn)	-1.9%
CC(C)CN(C(=O)COC(=O)c1ccc(Br)o1)c1c(N)n(Cc2ccccc2)c(=O)[nH]c1=O	-5.5%
CCc1cc(C(=O)Nc2c(C)nn(Cc3ccccc3Cl)c2C)no1	1.8%
COc1ccc(N2CCN(C(=O)CNC(=O)c3nn(-c4ccc(OC)cc4)c(=O)c4ccccc34)CC2)cc1	-4.2%

Screening results (PubChem)
